# Sfp inh – Sfp phosphopantetheinyl transferase inhibition; Biochemical Sfp PPTase activity, qHTS; 310,000 compounds, 3.5% hits; Potency, µM, without a hit: max response, negative = inhibition, most hits filed as inhibitors; AID 1490; active = well fitted inhibition curve with a large enough effect; inconclusive = small, poorly fitted or top-dose-only effect, or another doubt; inactive = no such curve, though single readings can be large or run the other way;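 note: the enzyme is Sfp with the accession as filed and its product quenches rhodamine fluorescence; potency is the fitted concentration of half-maximal effect; 0% = enzyme reaction without inhibitor and -100% = no enzyme wells; top concentration of the series not given in the record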
#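 Sfp 15 nM + cpd, 15 min RT; start w/ rhodamine-CoA 5 uM, BHQ-2-YbbR 12.5 uM (final); 50 mM Hepes pH 7.6, 10 mM MgCl2, 0.01% NP-40, 0.01% BSA; read 525/598 nm at 0 and 30 min.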
# TRPV1 potentiator – enhances activation of the human vanilloid receptor TRPV1 | Q8NER1 | TRPV1-expressing cells, Fluo-8 calcium influx, capsaicin EC20 potentiation; host cell line not named in the record; control for the full effect not named in the record | potentiation, % at 8.33 µM | 320,000 compounds, 0.02% hits; active means potentiation above 80%; inconclusive means 30% to 80%; inactive means below 30%; note: 0% is about no effect
# Target sequence (Q8NER1 whole entry, looked up): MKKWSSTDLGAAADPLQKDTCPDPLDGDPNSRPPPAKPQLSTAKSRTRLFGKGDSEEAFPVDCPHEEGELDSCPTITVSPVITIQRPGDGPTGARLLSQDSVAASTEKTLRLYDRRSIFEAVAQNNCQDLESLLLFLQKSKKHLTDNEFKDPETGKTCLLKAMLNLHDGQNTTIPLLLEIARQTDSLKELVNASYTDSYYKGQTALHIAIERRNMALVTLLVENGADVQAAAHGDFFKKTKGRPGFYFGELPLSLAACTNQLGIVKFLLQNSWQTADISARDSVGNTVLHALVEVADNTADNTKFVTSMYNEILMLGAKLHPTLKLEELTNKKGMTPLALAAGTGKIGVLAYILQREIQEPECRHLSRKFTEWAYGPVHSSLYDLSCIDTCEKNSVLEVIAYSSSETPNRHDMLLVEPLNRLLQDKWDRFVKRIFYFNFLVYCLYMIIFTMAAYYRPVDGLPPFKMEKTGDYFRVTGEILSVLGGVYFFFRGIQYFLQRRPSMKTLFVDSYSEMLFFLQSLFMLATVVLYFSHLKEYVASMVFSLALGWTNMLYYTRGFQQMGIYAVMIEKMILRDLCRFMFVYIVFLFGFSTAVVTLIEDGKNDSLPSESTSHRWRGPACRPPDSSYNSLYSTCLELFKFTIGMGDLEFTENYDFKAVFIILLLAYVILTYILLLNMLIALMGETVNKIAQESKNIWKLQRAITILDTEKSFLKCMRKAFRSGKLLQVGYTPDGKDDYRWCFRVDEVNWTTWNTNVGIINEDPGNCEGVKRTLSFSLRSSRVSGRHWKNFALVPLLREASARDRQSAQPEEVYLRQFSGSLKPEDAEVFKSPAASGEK
#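 Fluo-8 calcium influx in TRPV1-expressing cells, kinetic read (ex 480/em 520 nm). Compound added and read 3 min for agonist activity, followed by capsaicin at EC20 final and 2 min further read for enhancement.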
# Menin-MLL FL inh – inhibitors of human menin-MLL interaction, wild-type MLL peptide. Fluorescence polarization, fluorescein-MLL peptide displacement from menin. FP activity change, % at 61.4 µM. 290,000 tested, under 10 active. AID 1766; inconclusive = falling polarisation curve, or a change in total fluorescence; inactive = total fluorescence flat and polarisation flat or rising; no compound was filed as active; the % refers to the polarisation; negative = inhibition;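 note: % of control where 0% means no effect; inhibitors lower the polarisation; unlabelled MLL peptide was the positive control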
# ClpP mod – qHTS Assay for Activators of ClpP. 340,000 compounds, 1.9% hits. purified B. subtilis ClpP, FRET peptide cleavage, 20 min. Potency, µM (top dose mostly 57.5 µM), for inactives: top-dose activity change, negative = active. AID 651965, 2013. ATP-dependent Clp protease proteolytic subunit (Bacillus subtilis (strain 168)), P80244; active = well fitted falling curve with a large enough effect; inconclusive = small, poorly fitted or top-dose-only effect; inactive = no such curve, though single readings can be large or run the other way; note: potency is the fitted concentration of half-maximal effect; the source files actives as falling curves though it sought activators and does not explain the sign; nearly all actives have a fitted effect of over 65% in size; many hits overshoot -100%
#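 FRET quenching reversal measured ClpP activation: 10 microg/mL B. subtilis ClpP at pH 8 with the FRET-FV decapeptide, read at 430 nm after 320 nm excitation. The 20-min minus 0-min signal was scaled between DMSO/no-enzyme wells and ADEP (5.8 microM final).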
# gsp antag – antagonizes gsp, the McCune-Albright syndrome mutation; Potency, µM (titrated, usually from 76.9 µM), for inactives: top-dose activity change, negative = inhibition, usual class: inhibitors; gsp-mutant cells, cAMP HTRF, 30 min; control for the full effect not named in the record; 340,000 compounds, 0.4% hits; active = falling curve of any shape with a large fitted effect; inconclusive = falling curve, mostly with a smaller effect; inactive = flat or rising curve; cell line not stated here;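 note: intracellular cAMP measured with PDE inhibitor Ro 20-1724 present during compound exposure; potency is the fitted concentration of half-maximal effect; % is set by controls: 0 for no effect and ±100 for the full control effect; nearly all actives have a fitted effect of over 65% in size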
#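 Cells, 2000/well, grown 16–24 h in DMEM 10% FBS with 0.5 mg/ml G418, then compounds plus […] (300 uM addition stock), 30 min at 37C. cAMP read by HTRF (cAMP-d2 and anti-cAMP antibody-K in lysis buffer) after 30 min RT.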
# gsp ag – activates gsp, the McCune-Albright syndrome mutation | Potency, µM (highest dose often 76.9 µM), without a hit: at the highest dose activation (cAMP increase), most hits filed as activators | 340,000 compounds, 0.13% hits | gsp mutant cells, cAMP HTRF, 30 min; control for the full effect not named in the record | AID 624287; active = well fitted activation curve with a large enough effect; inconclusive = small, poorly fitted or top-dose-only effect, or another doubt; inactive = no such curve, though single readings can be large or run the other way; cell line not stated here;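 note: phosphodiesterase inhibitor Ro 20-1724 added with compounds to block cAMP breakdown; potency is the fitted concentration of half-maximal effect; nearly all actives have a fitted effect of over 60% in size; about a fifth of the inactives were tested at one dose only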
#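 Cells stably selected in G418 were plated at 2000/well, grown 16-24 hr, then given compounds in DMSO with the PDE inhibitor […] (300 uM solution added) for 30 min at 37C; cAMP was read by HTRF.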
# CtBP-E1A blk – CtBP/E1A binding inhibition; AlphaScreen GST-E1A/His-CtBP binding, 1536-well; stronger effect = lower value; control for the full effect not named in the record; activity change, % (test concentration not listed); 340,000 compounds, 0.49% hits; AID 651724; in the data active means activity change below about -65%; inconclusive means about -30% to -65%; inactive means above about -30%; note: % is set by controls: 0 for no effect and ±100 for the full control effect
#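 Homogeneous bead-based format: GST-tagged E1A captured on glutathione donor beads, His-tagged CtBP on nickel acceptor beads; compounds precede bead addition by 2 h at 37 °C.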
# * hit, by the source's call; ? = inconclusive; / = no result given; & = joins results of further samples; [ ] = remark or other dose.
nr | SMILES | Sfp inh | TRPV1 potentiator | Menin-MLL FL inh | ClpP mod | gsp antag | gsp ag | CtBP-E1A blk
1 | O=C(NCCCN1CCCC1)Nc1cccc2ccccc12 | 4% | 1 | 0.8 | ? | 12% | -1% | 1
2 | COc1ccc(C2=NN(C(=O)CCCC(=O)O)C(c3cn(-c4ccccc4)nc3-c3ccccc3)C2)cc1 (stereo not given) | 8% | 7 | 2.1 | / | ? | -51%[15.4 µM] | -21
3 | O=C(O)c1cc(NC(=O)c2ccco2)cc(NC(=O)c2ccco2)c1 | 6% | -6 | 1.5 | / | 5% | 30% | -1
4 | OCCN1CCN(C2CCC(c3ccc(F)cc3)c3ccc(F)cc32)CC1 (stereo not given) | / | / | / | / | 8% | 7% | -1
5 | Cc1cc(S(=O)(=O)N2CC(=O)N(CCc3ccccc3)C(=O)C2)ccc1F | 1% | 6 | 0.8 | 1.6% | -6% | -15% | 6
6 | C=C(C)COc1ccc(-c2nc(N)ncc2Oc2ccc(OC)cc2)c(O)c1 | 11% | 9 | 2.8 | 25µM* | -2% | -1% | -11
7 | O=C1CCCC/C=C\C[C@H](CC(=O)N(CCO)Cc2ccccc2)C(=O)N2CCC[C@@H]2CO1 | / | / | / | 1.5% | 5% | / | 2
8 | COc1ccc(NC(=O)N2CCCC2C(=O)NCc2ccc(C)cc2)cc1 (stereo not given) | 20% | 0 | -0.8 | / | 2% | -14% | -10
9 | Cc1ccc([C@H]2C(C(=O)O)=C[C@@H](CC3CCCC3)N2S(=O)(=O)c2ccc(C)cc2)cc1 | / | / | / | -1.4% | -14% | / | 1
10 | Cc1ccc2[nH]c3c(=O)[nH]ncc3c2c1 | 5% | -2 | -3.4 | / | 6% | -16%[15.4 µM] | 20
11 | O=C(CSc1ccc(-c2ccco2)nn1)c1cccc([N+](=O)[O-])c1 | 14µM* | 5 | 6.4 | -0.2% | -1% | -6%[15.4 µM] | 4
12 | O=C(COc1ccc(S(=O)(=O)N2CCOCC2)cc1Cl)NCCCn1ccnc1 | 19% | 1 | 2.0 | / | 1% | -6%[15.4 µM] | 3
13 | O=C(c1ccc2c(c1)OCCO2)C1CCN(S(=O)(=O)c2ccccc2F)CC1 | 5% | / | 3.0 | -6.1% | -6% | 6% | 5
14 | CN1CCCN(S(=O)(=O)c2cccc(C#N)c2)CC1 | -9% | -1 | -1.2 | 0.0% | 5% | -75%[inhibitor] | /
15 | CCCN(CCC)CCCNC(=O)c1cn(-c2ccc(OC)cc2)c(=O)c2ccccc12 | 1% | 9 | 2.0 | -4.0% | 4% | 24% | 0
16 | CCC(=O)N1CCc2cc(S(=O)(=O)NC(Cc3ccccc3)C(=O)O)ccc21 (stereo not given) | -4% | 4 | -0.3 | -2.0%&-0.4% | 10% | 10% | -23
17 | COc1cccc(NC(=O)COC(=O)C2CC3CCCC(C2)C3=O)c1 (stereo not given) | / | -3 | / | -2.8% | -2% | -39%[inhibitor] | /
18 | O=C(Cn1ccc2ccccc2c1=O)N1CCN(c2cccc(Cl)c2)CC1 | 0% | / | 2.6 | -8.3% | -16% | ? | 0
19 | CC(O)c1cc2c(cc1NC(=O)c1cnn3c1NC(c1ccco1)CC3C(F)(F)F)OCO2 (stereo not given) | 4% | 0 | 6.2 | 3.6% | -2% | -2% | 1
20 | Cc1ccnc2nc(C(=O)Nc3nnc(-c4ccc(Cl)cc4)o3)nn12 | -3% | -5 | 11 | 0.0% | 2% | -14%[15.4 µM] | 2
21 | O=C(NCCc1nc2ccccc2[nH]1)c1ccc(Br)o1 | 27% | -10 | -4.2 | / | -15% | -24% | 0
22 | COc1ccc(CNC(=O)C(c2ccco2)N(C(=O)c2snc(C(N)=O)c2N)c2ccccc2OC)cc1 (stereo not given) | 7% | 8 | / | -5.7% | -13% | -20%[15.4 µM] | 19
23 | c1ccc(CSc2nnnn2-c2ccc3c(c2)OCCO3)nc1 | 18% | -12 | -0.7 | -0.8% | -8% | 0% | 19
24 | O=C(CSc1nc2ccccc2c(=O)[nH]1)Nc1ccccc1C(F)(F)F | 7% | -6 | / | 0.4% | 3% | 18% | /
25 | COC(=O)c1sccc1NC(=O)/C=C/c1c(Cl)cccc1Cl | 40µM* | 1 | 2.5 | 26% | -8%[15.4 µM] | 23% | 10
26 | C=CCN1C(c2ccc(OCC)cc2)=CS/C1=C(\C#N)c1nnc2n1CCCCC2 | ? | -5 | -1.5 | 0.4% | ? | 2% | 1
27 | COc1ccc(-c2cc3nc4n(c(=O)c3s2)CCCCC4)cc1 | 4% | -8 | 1.8 | / | -11% | ? | 5
28 | CCOC(=O)c1c(S(=O)(=O)NC2CCN(C(=O)OCC)CC2)c(C)n(C)c1C | 11% | 3 | / | -0.9% | 7% | 20% | /
29 | CN(CCO)c1ncnc2c1sc1nc(N3CCOCC3)c3c(c12)CCC3 | 10% | 1 | -1.8 | -16% | 19% | 10% | /
30 | Cc1ccc(-c2nnc(/C=C/c3ccccc3)o2)cc1 | -8% | -8 | -0.8 | ? | 14% | -31%[inhibitor] | 9
31 | COCCNC(=O)CCC1CCN(Cc2cccc(-c3ccc(C)o3)c2)CC1 | -8% | -6 | 17 | -2.5% | 4% | 28% | 1
32 | CCCOC(=O)c1ccc(NC(=O)C(=O)NCCN(CC)CC)cc1 | 12% | 10 | -0.4 | 1.5% | 12% | -26% | /
33 | O=C(O)c1ccc2c(c1)C(=O)N(NC(=O)c1ccc(O)cc1)C2=O | 1% | -8 | -1.0 | -0.5% | -13% | 25% | 8
34 | O=C1CCN(C(=O)Nc2ccccc2Cl)N1 | -10% | 6 | 3.0 | 0.8% | 6% | -19% | -3
35 | CN(C)C(=O)/C(=C\c1ccc(-c2cccc([N+](=O)[O-])c2)o1)NC(=O)c1ccccc1 | -9% | 3 | -6.6 | 1.8% | -15% | -52%[inhibitor] | /
36 | Cc1nn(-c2ccc(N3CCCCC3)nn2)c(C)c1CCC(=O)Nc1cccc(F)c1 | 9% | -12 | -3.6 | -3.3%&-7.2% | -1% | -28% | /
37 | O=C(O)CCC(=O)N1CCCC1 | 13% | ? | 1.7 | / | 14% | -14%[15.4 µM] | -1
38 | CC(C)OC(=O)/C(C#N)=C/c1cn(C)c2ccccc12 | 8% | -7 | 0.1 | / | -12% | 9% | 0
39 | CCOC(=O)CNC(=O)CSc1nnc(-c2cccc(OC)c2)n1CC | 16% | 1 | 0.2 | 3.3% | -4% | ? | 8
40 | COc1ccc(CC(=O)NCc2n[nH]c(=S)n2-c2ccccc2)cc1 | -2% | -6 | 1.0 | -1.9% | 3% | ? | /
41 | Nc1nnn(-c2ccccc2)c1-c1ccccc1 | / | / | / | / | 1% | -4%[15.4 µM] | 4
42 | CCOC(=O)CN1C(=O)N[C@@H](c2ccccc2)[C@H](C(C)=O)[C@H]1C | 9% | / | 3.6[11.7 µM] | 1.9% | 11% | 4% | 9
43 | CCN1CCC(CNCc2cn(-c3ccc(OC)cc3)nc2-c2ccccc2Cl)C1 (stereo not given) | 6% | 5 | -3.1 | / | 5% | ? | -9
44 | COc1ccc(OC)c(CNC(=O)C2CCC(=O)N(CCCN3CCCC3=O)C2)c1 (stereo not given) | 11% | -16 | / | -0.8% | 6% | -25% | -4
45 | CC(=O)Nc1sc(C)c(C)c1CN1CCN(Cc2ccccc2)CC1 | 0% | 7 | -1.7 | / | 9% | -23%[15.4 µM] | -24
46 | O=C(CCC(=O)c1ccc(Oc2ccccc2)cc1)Nc1ccc(C(=O)O)cc1 | 14% | 0 | -0.4 | -2.1% | -13% | -12% | /
47 | CC(C)CCSc1nnc(Cn2c(=O)sc3ccccc32)n1C | 19% | 13 | 0.5 | -1.3% | 6% | -15% | 8
48 | CC(C)NC(=O)Nc1ccc2c(c1)C(=O)N([C@H](C)CO)C[C@H](C)[C@@H](CN(C)Cc1ccc(C(F)(F)F)cc1)OCCCC[C@H](C)O2 | / | / | / | 1.3% | / | ? | -3
49 | O=C(c1cc(-c2ccccc2)nc2ccccc12)N1CCN(C2CCS(=O)(=O)C2)CC1 (stereo not given) | / | -4 | / | -9.6% | 3% | 29% | /
50 | CCN(CC(=O)Nc1ccccc1C(F)(F)F)C(=O)/C=C/c1ccc(Cl)c([N+](=O)[O-])c1 | / | 11 | / | -1.3% | 4% | -1% | -4
51 | Cn1c(C(=O)N2CCN(C3CCCCC3)CC2)cc2c(=O)n(C)c3ccccc3c21 | 0% | 9 | -2.5 | / | / | / | /
52 | Clc1ccc(-c2n[nH]c3c2CCC3)cc1Cl | 2% | -2 | 1.3 | 3.2% | -27% | -5% | -3
53 | Cc1cc(/C=C2\SC(=S)N(C)C2=O)c(C)n1-c1ccc(O)cc1 | -1% | 10 | ? | 0.9% | ? | 29% | -12

# Screens: PubChem BioAssay, National Center for Advancing Translational Sciences (NCATS)

# No enrichment for hits (roughly 5.3% active in at least one column).
